Compound activity deposited in PubChem by National Center for Advancing Translational Sciences (NCATS).
HPGD inh = inhibitors of human 15-hydroxyprostaglandin dehydrogenase (HPGD). P15428. purified HPGD, NADH fluorescence kinetic, PGE2 substrate. 150,000 tested, 4.3% active. Potency, µM, for the others: at the top dose activity change, negative = inhibition, hits mostly inhibitors; active = well fitted inhibition curve with a large enough effect (not every such curve was filed as active); inconclusive = small, poorly fitted or top-dose-only effect, or another doubt; inactive = no such curve, though single readings can be large or run the other way;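 also: top concentration of the series not given in the record; plate controls included wells without enzyme; inactives centre near -10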
Target sequence (P15428 whole entry, looked up): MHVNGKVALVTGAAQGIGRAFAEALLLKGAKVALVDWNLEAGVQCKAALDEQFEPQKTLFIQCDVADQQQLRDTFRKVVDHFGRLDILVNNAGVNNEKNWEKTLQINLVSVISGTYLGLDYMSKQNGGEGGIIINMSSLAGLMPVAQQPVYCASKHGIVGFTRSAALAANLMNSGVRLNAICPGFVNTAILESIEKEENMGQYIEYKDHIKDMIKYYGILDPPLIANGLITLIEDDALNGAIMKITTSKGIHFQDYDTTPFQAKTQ
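20 nM HPGD preincubated 15 min at room temperature with compound in 50 mM Tris-HCl pH 8, 0.01% Tween 20. Started with 1 mM NAD+ and 30 uM prostaglandin E2; NADH fluorescence (360/450 nm) read 5 times over 30-s intervals, last minus first.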
An asterisk follows results filed as active. % is scaled to controls: 0 for no effect and ±100 for the full control effect; potency is read from the fitted curve at half-maximal effect. Not all compounds are listed; count on the stated rates, not on these rows.

Preview (three entries):
CC(=O)Nc1ccccc1OCC(=O)N(Cc1ccccc1)C(C)C was read as HPGD inh -4.6%.
For CCN(CC)CCNC(=O)Cn1c(C)cc2ccccc2c1=O the results were HPGD inh -7.8%.
Screening O=C1CC(c2ccccc2)CC2=C1C(c1ccccn1)Nc1ccccc1N2 (configuration not stated) returned HPGD inh -4.9%.

The whole of this part, from the start:
CC(=O)Nc1ccccc1OCC(=O)N(Cc1ccccc1)C(C)C was read as HPGD inh -4.6%.
For CCN(CC)CCNC(=O)Cn1c(C)cc2ccccc2c1=O the results were HPGD inh -7.8%.
Screening O=C1CC(c2ccccc2)CC2=C1C(c1ccccn1)Nc1ccccc1N2 (configuration not stated) returned HPGD inh -4.9%.
`CC(C)NC(=O)[C@@H]1C[C@H]1[C@@H](NC(=O)OCc1ccccc1)c1ccccc1` gave HPGD inh -9.4%.
`O=C(O)c1cccc(Nc2ncnc3c2cnn3-c2ccccc2)c1` gave HPGD inh -16.0%.
`O=C(Cn1cnc2c(oc3ccccc32)c1=O)N1CCN(c2ccccc2)CC1` gave HPGD inh -9.0%.
Cc1nn2c3ccccc3n(Cc3ccccc3)c2nc1=O was read as HPGD inh inconclusive.
CC(C)n1nc(C(=O)Oc2cc(Cl)ccc2Cl)c2ccccc2c1=O was read as HPGD inh -7.4%.
Cc1cccc(C)c1N=Cc1c(O)n(-c2nccs2)c(=O)c2ccccc12 was read as HPGD inh -3.8%.
CC(C)Sc1nnc([C@@H]2CCCN2C(=O)OC(C)(C)C)o1 was read as HPGD inh -11.8%.
`CCOc1ccc(/C=N/NC(=O)c2csc(C)c2C)c(OCC)c1` gave HPGD inh -15.2%.
`CCOC(=O)CSC1=C(C#N)C(c2ccccc2C)C2=C(CCCC2=O)N1` (configuration not stated) gave HPGD inh -7.5%.
Nc1ncnc2nc(SCCOc3ccc(Cl)cc3)[nH]c12 was read as HPGD inh -6.6%.
`COc1ccc(NC(=O)Cc2c[nH]c3ccccc23)cc1S(=O)(=O)N1CCCCC1` gave HPGD inh -9.5%.
`O=C(Cn1cc(C(F)(F)F)ccc1=O)N/N=C/c1cccc(Cl)c1Cl` gave HPGD inh -8.5%.
Screening CCCCC(C(=O)NC1CCCC1)N(Cc1ccco1)C(=O)Cn1nnc(-c2ccc(F)cc2)n1 (configuration not stated) returned HPGD inh -26.7%.
For Cc1ccc2cccc(S(=O)(=O)N3CCN(c4cccc(Cl)c4)CC3)c2n1 the results were HPGD inh -8.7%.
`CC(C)(C)c1cc(NC(=O)c2cccc(S(=O)(=O)N3CCOCC3)c2)no1` gave HPGD inh -4.5%.
For CN(C)C(=O)COn1c(SCC(=O)N(C)C)nc2ccccc2c1=O the results were HPGD inh -5.4%.
For CC(C#N)On1c(SC(C)C#N)nc2ccccc2c1=O (configuration not stated) the results were HPGD inh -7.5%.
Cc1nc2ncnn2c(C)c1CCC(=O)O was read as HPGD inh 2.4%.
`Cc1ccc(C(C[N+](=O)[O-])c2c(C)[nH]n(-c3ccccc3)c2=O)cc1` (configuration not stated) gave HPGD inh -20.6%.
`Oc1[nH]c2ccccc2c1N=NC(=S)NCC1CCCO1` (configuration not stated) gave HPGD inh inconclusive.
For CCn1c(SCC(=O)NC2CCCCC2C)nnc1-c1ccc(OC)cc1 (configuration not stated) the results were HPGD inh -23.7%.
`Cc1nnc(SCC(=O)c2c(N)n(C)c(=O)n(C)c2=O)[nH]c1=O` gave HPGD inh -4.9%.
For O=C(CSc1nnc2c(Cl)cc(C(F)(F)F)cn12)N(Cc1ccccc1)Cc1ccccc1 the results were HPGD inh -18.9%.
For O=C(CN(Cc1ccc(Cl)c(Cl)c1)S(=O)(=O)c1ccccc1)N/N=C\c1ccc2c(c1)OCO2 the results were HPGD inh inconclusive.
Screening CN(C)Cc1ccccc1-c1cc(Nc2ccccc2)ncn1 returned HPGD inh -3.3%.
For Cc1c(C)c2cc(Cl)c(O)c(CN3CCCCC3)c2oc1=O the results were HPGD inh inconclusive.
`O=C1CN(C(=O)COC(=O)C23CC4CC(CC(O)(C4)C2)C3)c2ccccc2N1` gave HPGD inh -1.7%.
`CC(C)Oc1ccc(/C=N/NC(=O)C(CSCc2ccccc2)NC(=O)c2ccc([N+](=O)[O-])cc2)cc1` (configuration not stated) gave HPGD inh -10.9%.
`CCn1nnc(NC(=O)c2ccc(-c3ccc(Cl)cc3)o2)n1` gave HPGD inh inconclusive.
O=C(O)c1ccc(NS(=O)(=O)c2ccsc2C(=O)O)cc1 was read as HPGD inh -12.9%.
Screening O=C(CSc1nc(Cc2ccccc2)nc2ccccc12)Nc1ccc2c(c1)OCCO2 returned HPGD inh -9.6%.
Cc1c(O)ccc(/C(Cc2ccc3ccccc3n2)=N\O)c1O was read as HPGD inh -23.8%.
For COc1ccccc1NC(=O)COC(=O)/C=C/c1ccccc1[N+](=O)[O-] the results were HPGD inh -28.7%.
For CCCCOC(=O)CSC(=S)N(C)Cc1cccs1 the results were HPGD inh -19.1%.
`CN(CCCNC(=O)C1CCC(=O)N1Cc1ccccc1Cl)c1ccccc1` (configuration not stated) gave HPGD inh -0.7%.
Screening CC1=C(C(=O)OC(C)C)[C@@H](c2ccc(C)o2)NC(=O)N1 returned HPGD inh -13.1%.
For O=C1CC(NC23CC4CC(CC(C4)C2)C3)C(=O)N1c1ccc2c(c1)OCO2 (configuration not stated) the results were HPGD inh -4.5%.
CCCCNc1nc(CC)c2c(c1C#N)CCCC2 was read as HPGD inh inconclusive.
`N=c1ccccn1CC(O)COc1ccccc1` (configuration not stated) gave HPGD inh -17.9%.
For CCOCCN1CCN(c2c(C)c(C)nc3cc(-c4cc(OC)cc(OC)c4)nn23)CC1 the results were HPGD inh -27.8%.
Cc1oc(-c2ccccc2F)nc1CS(=O)(=O)CC(=O)NCCCN1CCc2ccccc2C1 was read as HPGD inh 1.5%.
For O=C(OCCN=C1NS(=O)(=O)c2ccccc21)C1CC(=O)N(c2ccc(Cl)cc2)C1 (configuration not stated) the results were HPGD inh -16.4%.
Screening COc1ccccc1-c1cc(C(F)(F)F)nc(N2CCCCC2)n1 returned HPGD inh inconclusive.
`O=C1c2ccccc2C(=O)N1CCc1nc2ccccc2c(=O)n1CCCn1ccnc1` gave HPGD inh -7.5%.
Cc1nc2ccc(NC(=O)C(F)(F)F)cc2o1 was read as HPGD inh 3.1%.
`COc1ccc(/C(O)=C2/C(=O)C(=O)N(Cc3ccco3)C2c2cccs2)cc1` (configuration not stated) gave HPGD inh 3.2%.
For N#CCCCS(=O)(=O)c1nnnn1-c1ccc(F)cc1Br the results were HPGD inh -9.6%.
Screening O=c1cc(NCc2ccccc2)c2ccccc2o1 returned HPGD inh inconclusive.
`CC(C)(C)c1cc(-c2nc(N)nc(N)n2)cc(C(C)(C)C)c1` gave HPGD inh -15.4%.
For O=C(CNS(=O)(=O)c1ccc(Br)s1)N1CCC(N2CCCCC2)CC1 the results were HPGD inh 2.7%.
Screening Cc1cccc(C)c1NC1=C(Cl)C(=O)OC1OC(C)C (configuration not stated) returned HPGD inh -10.7%.
For COc1cccc(C(=O)N2CCN(Cc3ccccn3)CC2)c1OC the results were HPGD inh -10.4%.
`CCOC(=O)N1CCN(C(=O)CN(Cc2ccccc2)S(=O)(=O)c2ccc(OC)c(Cl)c2)CC1` gave HPGD inh -9.7%.
`CC(=O)Nc1ccc(S(=O)(=O)NCCC(=O)OCCN2C(=O)c3ccccc3C2=O)cc1` gave HPGD inh -8.9%.
`O=C(Nc1cccnc1)c1ccc(Br)s1` gave HPGD inh -3.0%.
`COc1ccc(CCNC(=O)CSC2=Nc3ccccc3C3=NC(C(C)C)C(=O)N23)cc1OC` (configuration not stated) gave HPGD inh -6.2%.
CCOc1cc(CNCCc2ccc(S(N)(=O)=O)cc2)ccc1OCc1ccccc1 was read as HPGD inh -8.1%.

Reprinted at random: 4 compounds from above
Screening O=C(CSc1nc(Cc2ccccc2)nc2ccccc12)Nc1ccc2c(c1)OCCO2 returned HPGD inh -9.6%.
`O=C(Cn1cnc2c(oc3ccccc32)c1=O)N1CCN(c2ccccc2)CC1` gave HPGD inh -9.0%.
CC(C)n1nc(C(=O)Oc2cc(Cl)ccc2Cl)c2ccccc2c1=O was read as HPGD inh -7.4%.
`CCn1nnc(NC(=O)c2ccc(-c3ccc(Cl)cc3)o2)n1` gave HPGD inh inconclusive.

(more compounds)
`CCN(CC)S(=O)(=O)c1ccc(C(=O)NCc2cccs2)cc1` gave HPGD inh -16.2%.
Screening COc1cc(C)ccc1OCCCOc1ccccc1Br returned HPGD inh inconclusive.
CC1CC(=O)N(c2ccc(NCc3ccccc3Cl)c([N+](=O)[O-])c2)C1=O (configuration not stated) was read as HPGD inh -23.6%.
Screening CCC(C)(NC(=O)c1ccc(=O)[nH]c1)C(=O)NC1CCCC1 (configuration not stated) returned HPGD inh -1.5%.
For CC1Cc2ccccc2N1C(=O)CSc1nc2cc3c(cc2cc1C#N)OCO3 (configuration not stated) the results were HPGD inh -21.1%.
Screening CCOC(=O)c1sc(NC(=O)c2cccnc2)nc1C returned HPGD inh -15.0%.
N#Cc1c(SCc2cccc(Cl)c2)sc(C(=O)c2ccccc2)c1N was read as HPGD inh -21.3%.
For CC(C)CNS(=O)(=O)c1ccc(OCC(=O)NCc2ccco2)cc1 the results were HPGD inh -15.9%.
Screening CCOC(=O)/C(C#N)=C1/C=CNC(=O)N1 returned HPGD inh -28.9%.
`CCOc1ccc(C(F)(F)F)cc1NC(C)=O` gave HPGD inh -5.7%.
For CN=C(Nc1cc(C)nn1CCC#N)c1ccc(F)cc1 the results were HPGD inh -6.4%.
`CCc1ccc(NC(=O)c2c(Cl)nc(C)c(Cl)c2C)cc1` gave HPGD inh -7.1%.
C=CCSc1nncn1/N=C/c1ccc(OC)cc1 was read as HPGD inh -6.6%.
CCOC(=O)Nc1ccc2c(c1)N(C(=O)CN1CCN(C)CC1)c1ccccc1S2 was read as HPGD inh -7.0%.
Nc1ccc(CC2SC(=O)NC2=O)cc1 (configuration not stated) was read as HPGD inh -12.7%.
`Cc1cc(OCCCn2ccnc2)ccc1C(C)C` gave HPGD inh 1.9%.
Screening Cc1occc1-c1nnc(SCC(=O)Nc2ccccc2)n1C(C)c1ccccc1 (configuration not stated) returned HPGD inh -11.4%.
O=C(CSc1nc2ccccc2s1)NCCCN1CCOCC1 was read as HPGD inh -0.7%.
Screening Cc1[nH]nc(N=CC2=C(O)CC(C)(C)CC2=O)c1-c1ccccc1 returned HPGD inh -16.8%.
Cc1cc(C)nc(NC(=O)c2ccc(C)c([N+](=O)[O-])c2)n1 was read as HPGD inh 6.3%.
Screening COc1ccccc1Nc1nnc(SCc2nnc(-c3cc(OC)c(OC)c(OC)c3)o2)s1 returned HPGD inh -16.9%.
Screening CCOC(=O)C1CCN(c2c(NCc3ccc(C(=O)NCCC(C)C)cc3)c(=O)c2=O)CC1 returned HPGD inh 3.55µM*.
COc1ccc(Cc2nnc(NC(=O)C3CCCO3)s2)cc1 (configuration not stated) was read as HPGD inh -17.7%.
Screening Cc1cccc(OCC(O)Cn2c(=N)n(CCN3CCOCC3)c3ccccc32)c1 (configuration not stated) returned HPGD inh -3.1%.
C=CCNC(=O)c1cc([N+](=O)[O-])cc2c(=O)[nH]c(Nc3ccc(Cl)c(Cl)c3)nc12 was read as HPGD inh -10.7%.
Cc1ccc2nc(-c3ccc(NC(=O)CCS(=O)(=O)c4ccccc4)cc3)sc2c1 was read as HPGD inh inconclusive.
For CCOC(=O)c1[nH]c(C)c(C(=O)N2CCOCC2)c1C the results were HPGD inh -10.3%.
Screening CC(=O)Nc1ccc(NC(=O)CN(c2ccc(C34CC5CC(CC(C5)C3)C4)cc2)S(C)(=O)=O)cc1 returned HPGD inh -9.0%.
For CCOc1ccc(C(=O)Nc2ccc(NC(=O)c3ccco3)c(Cl)c2)cc1Br the results were HPGD inh inconclusive.
Screening Cc1ccc(S(=O)(=O)N(CC(=O)O)Cc2ccccc2F)cc1 returned HPGD inh -6.6%.
O=C(CCn1c(=O)oc2ccccc21)Nc1ccccc1 was read as HPGD inh -22.8%.
`COC(=O)c1ccc(-n2nnnc2SCc2nn[nH]n2)cc1` gave HPGD inh -28.1%.
`Cn1c(NC(=O)c2ccccc2NC(=O)C(C)(C)C)nc2ccccc21` gave HPGD inh -16.9%.
`O=C(NC(=S)Nc1ccccc1N1CCCCC1)c1ccco1` gave HPGD inh -19.8%.
Cc1ccc2cc(CN(CCCO)S(=O)(=O)c3cccc4nsnc34)c(=O)[nH]c2c1C was read as HPGD inh -6.3%.
`Cc1cc(NC(=O)/C=C/C(=O)N(c2ccccc2C)C(C(=O)NC2CCCC2)c2ccc(F)cc2)no1` (configuration not stated) gave HPGD inh -13.6%.
For CCOc1cc(NC(=O)C2CCCCC2)c(OCC)cc1NC(=O)c1ccco1 the results were HPGD inh -15.7%.
Screening Cc1ccc(CSc2ccc(-c3ccco3)nn2)cc1 returned HPGD inh -21.1%.
Screening Cc1ccc(/C(=N\O)c2oc3c(C)c4oc(=O)cc(C)c4cc3c2C)cc1 returned HPGD inh inconclusive.
`O=C(Cn1c(-c2cscn2)nc2ccccc21)Nc1ccc(Cl)cc1` gave HPGD inh -12.1%.
Screening COc1ccc(-c2ccc(C#N)c(SCC(=O)Nc3sc4c(c3C#N)CCC4)n2)cc1 returned HPGD inh inconclusive.
`CC(C)(C)NC(NC(=O)Cc1ccccc1)C(Cl)(Cl)Cl` (configuration not stated) gave HPGD inh -13.0%.
Screening CC1(C)Cc2c(sc3nc4n(c(=N)c23)CCC4)CO1 returned HPGD inh -2.3%.
Screening COC(=O)/C(=C(/F)SCC(C)=O)C(F)(F)F returned HPGD inh -11.9%.
For CCCCCC(=O)N=Nc1c(O)[nH]c2ccc([N+](=O)[O-])cc12 the results were HPGD inh -10.1%.
Cc1ccc(-c2nnn(CC(=O)NC3CCN(Cc4ccccc4)CC3)n2)cc1 was read as HPGD inh -1.3%.
`CC1(CCC(=O)OC2CCCCC2)OCCO1` gave HPGD inh -1.8%.
